Screening data as filed in PubChem BioAssay.
Rango dissoc inh – inhibition of RanGTP-driven Rango-importin beta dissociation | Biochemical FRET Rango-importin beta, RanGTP-induced dissociation | Potency, µM (top dose mostly 46.1 µM), inactives show top-dose activity change, negative = inhibition | 340,000 tested, 0.071% active | AID 540253; active means falling FRET ratio curve, often poorly fitted, with flat reads before Ran was added; inconclusive means other falling curves, or compound fluorescence or quenching; inactive means flat or rising ratio curve;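 further: potency means the concentration at half of the fitted maximal effect; % of control where 0% means no effect; nearly all actives have a fitted effect of over 45% in size; -100% = wells without RanGTP and RCC1; the record marks most hits as doubtful in a second field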
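Rango FRET biosensor (snurportin-1 IBB flanked by N-terminal EYFP and C-terminal CFP10) at 0.1 uM, with 0.25 uM importin beta in PBS, 1mM DTT, 0.02% Tween-20, 0.1% BSA. 0.6 uM Ran, 2mM GTP and 0.2 uM RCC1 were then added for 45 min at room temperature. Inhibition read as loss of FRET rise.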
miR-21 reporter – raises the signal of a miR-21 reporter. 340,000 tested, under 10 active. AID 2288. Potency, µM (titrated, usually from 38.3 µM), inactives show at the highest dose reporter change, positive = more light. HeLa miR-21 FLuc reporter, luciferase, 48 h; active = well fitted rising curve with a large enough effect; inconclusive = small, poorly fitted or top-dose-only effect; inactive = no such curve, though single readings can be large or run the other way;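 further: % of control where 0% means no effect; miR-21 action dims this reporter so a rising signal means less miR-21 action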
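Luminescence from a firefly luciferase reporter carrying a miR-21 binding site downstream, stably expressed under a CMV promoter in HeLa cells that make miR-21 endogenously, reports miRNA modulation after 48 h compound exposure up to approximately 40uM final.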
Rango-impB inh – prevents formation of the Rango-importin beta complex. Q14974. 340,000 tested, 0.031% active. AID 540263. Rango CFP/YFP FRET sensor + importin beta, 45 min. Potency, µM (series often up to 92.2 µM), for inactives: at the highest dose inhibition of complex formation; active = rising FRET ratio curve, often small or poorly fitted; inconclusive = mostly compound fluorescence or quenching in the first reads; inactive = flat curves in all reads;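 further: potency means the concentration at half of the fitted maximal effect; 0% = DMSO wells and 100% = buffer wells lacking importin beta; nearly all actives have a fitted effect of over 15% in size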
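Inhibition scored from the CFP 486 nm/YFP 530 nm FRET ratio 45 min after adding 0.125 microM importin beta to 50 nM Rango biosensor preincubated 5 min with compound (room temperature, PBS with DTT, Tween-20, BSA). No-importin wells as positive control.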
GLA inh pH 4.5 – inhibitors of human alpha-galactosidase A at pH 4.5 | 230,000 tested, under 10 active | activity change, negative = inhibition, % at 105 µM | AID 1467 | purified enzyme, 4-MU-alpha-Gal fluorescence, pH 4.5; inconclusive = small, poorly fitted or top-dose-only inhibition, or a rising curve; inactive = flat fitted curve, though single readings scatter; no compound was filed as active;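 further: 0% = full activity with enzyme and -100% = basal without enzyme; dose as in the result columns while the protocol names 77 µM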
Target sequence (P06280 whole entry, looked up): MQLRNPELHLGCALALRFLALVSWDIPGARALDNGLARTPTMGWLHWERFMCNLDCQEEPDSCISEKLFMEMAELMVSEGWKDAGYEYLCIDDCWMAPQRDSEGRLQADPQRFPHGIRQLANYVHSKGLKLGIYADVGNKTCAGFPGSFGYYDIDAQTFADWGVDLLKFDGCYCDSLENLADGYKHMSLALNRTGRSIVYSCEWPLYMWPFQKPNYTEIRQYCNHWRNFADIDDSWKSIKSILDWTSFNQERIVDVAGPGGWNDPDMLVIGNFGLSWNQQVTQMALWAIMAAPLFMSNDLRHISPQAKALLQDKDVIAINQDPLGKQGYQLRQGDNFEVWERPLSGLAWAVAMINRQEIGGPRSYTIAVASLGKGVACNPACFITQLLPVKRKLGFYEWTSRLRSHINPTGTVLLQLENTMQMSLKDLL
Active calls of the source: *; ? = inconclusive; · = not tested or not shown; & = joins results of further samples; [ ] = dose if it differs, or a comment. A portion of the library (hit frequency here may not be typical).

GLA inh pH 4.5	Rango dissoc inh	Rango-impB inh	miR-21 reporter	canonical_smiles
0.3	·	·	-11.1%	CN(C)/C=C(\C=N\OCc1ccc(Cl)cc1Cl)C(=O)Nc1ccc(Cl)c(Cl)c1
6.8	15.7%	5.0%	-4.3%	O=C(Cn1cccc1C(=O)c1ccccc1)NCCN1CCCCCC1
-9.1	-14.6%	2.5%	1.8%	CC(=O)N1N=C(N)SC12CCCC2
·	-10.3%	-3.8%	0.3%	COc1ccc(N2CCN(C(C)C(=O)N(C)Cc3ccccc3)CC2)cc1 (configuration not stated)
·	1.9%	-0.1%	5.5%	O=S(=O)(c1ccccc1)N1CCN(c2ncnc3scc(-c4ccccc4)c23)CC1
-1.8	-2.1%	-0.7%	0.3%	CCOC(=O)Cn1c(=O)oc2cc(S(=O)(=O)Nc3cc(Cl)ccc3OC)ccc21
·	42.0%	9.0%	-2.8%	CCN1CCN(CC#CCOc2ccccc2OC)CC1
-2.7	-10.1%	-0.7%	-2.6%	O=C1CCCN1CCC1CCN(C2CC(=O)N(Cc3ccc(N4CCCC4=O)cc3)C2=O)CC1 (configuration not stated)
2.0	5.2%	4.0%	-4.0%	Cc1ccc(CN=c2c([N+](=O)[O-])nn(-c3cccc(C)c3)n2O)cc1
5.1	21.5%	-4.2%	-5.1%	Cc1cc(SC(C)C(=O)NCC(=O)Nc2ccc(F)c(F)c2F)nc2ccccc12 (configuration not stated)
·	-0.7%	5.5%	-0.5%	Brc1ccccc1Cn1cnc2ccccc21
5.9	7.1%	0.0%	-5.8%	CCOC(=O)CN1C(=O)SC(Nc2ccc(C)cc2)C1=O (configuration not stated)
-4.8	-2.0%	1.6%	?	CCOC(=O)C(=Cc1ccccc1OC)C(=O)OCC
·	-0.1%	4.5%	1.4%	COc1ccccc1C(=O)NC1CCN(C(=O)Nc2ccc(F)cc2)CC1
3.3	3.4%	0.1%	10.4%	COc1ccc(C2CN=NC23CCc2ccccc2C3=O)cc1 (configuration not stated)
2.9	-3.4%	-2.4%	-0.2%	COc1ccc(OC)c(NC(=O)COC(=O)c2ccc(S(=O)(=O)N3CCOCC3)cc2)c1
·	-5.2%	0.1%	-1.1%	O=C(NCCOc1ccccc1)C1CCC(=O)N(CCN2CCOCC2)C1 (configuration not stated)
·	0.4%	-5.1%	·	CN(c1ccc(F)cc1)S(=O)(=O)c1ccc(Cl)c(C(=O)NCC(c2ccco2)N2CCCCC2)c1 (configuration not stated)
-0.6	?	?	-2.9%	Cc1c(C(=O)Nc2ccc(F)cc2)cn2c(nc3ccccc32)c1C#N
4.2	0.2%	3.4%	-6.5%	N#Cc1c2c(c[nH]c1=O)CCN2Cc1ccccc1
-3.2	·	·	15.1%	CSCSC1=C(C#N)C(c2ccc(Cl)cc2)C(C(C)=O)=C(C)N1 (configuration not stated)
·	-11.1%	-2.5%	-1.3%	COc1ccccc1NC(=O)CC(=O)c1cccc([N+](=O)[O-])c1
7.5	1.2%	?	10.4%	COc1ccc(-c2cn3c(C)c(C(=O)Nc4cc(NC(C)=O)ccc4OC)sc3n2)cc1
-9.8	-0.8%	-0.6%	1.2%	Cn1c(Cn2c(=O)sc3ccccc32)nnc1SCC(=O)N1CCCc2ccccc21
·	71.3%	-3.3%	·	CCCCC(=O)NCCc1cc2c(C)ccc(C)c2[nH]c1=O
0.1	10.2%	1.1%	-0.8%	COc1cccc(C(=O)NN2C(=O)C3C4C=CC(O4)C3C2=O)c1 (configuration not stated)
·	-3.4%	-5.1%	-3.3%	CC(C)n1cc(CN2CCC(n3nccc3NC(=O)Cc3ccccc3)CC2)cn1
-6.2	0.3%	-2.7%	0.7%	COc1cccc(N2CN(C3CCCCC3)CNC2=S)c1
4.7	-19.6%	-1.9%	-7.3%	COCCNC(=O)CN1C(=O)CC(C)(C)S(=O)(=O)c2ccccc21
-29.1	?	?	1.0%	O=C(NCc1ccc2[nH]c3c(c2c1)CCCC3)c1ccc(S(=O)(=O)N2CCCCC2)cc1
·	28.9%	-0.4%	-7.8%	CSc1ccccc1OCc1cc(C(=O)N(C)C2CCCc3ccccc32)no1 (configuration not stated)
·	-0.5%	-2.0%	·	COc1ccc(CCNC(=O)C(C)SCC(=O)Nc2ccc(F)cc2)cc1 (configuration not stated)
-4.2	?	-0.3%	-3.0%	O=C(O)c1ccc2c(c1)C(=O)N(c1nccs1)C2=O
·	14.4%	-3.5%	·	CCOC(=O)c1cn(Cc2ccccc2)c(C(=O)OC(C)(C)C)c1O
-1.2	-1.4%	?	-11.5%	CCN1CCSc2ccc(C(=O)Nc3ccc(NC(C)=O)cc3)cc21
3.9	6.6%	3.1%	-4.0%	COc1cccc(C(=O)COC(=O)C(C)N2C(=O)C3C4C=CC(C4)C3C2=O)c1 (configuration not stated)
·	1.5%	1.4%	·	CCOc1ccc(NC(=O)CN(C)C(=O)c2c(C)nn(Cc3ccccc3Cl)c2C)cc1OCC
·	7.7%	-1.2%	-0.3%	COc1cccc2sc(N(CCN(C)C)C(=O)c3ccc4c(c3)CCCC4)nc12
-0.6	-15.0%	-1.4%	-4.0%	O=C1NC(c2ccncc2)Nc2ccccc21 (configuration not stated)
·	-13.4%	?	12.6%	COc1ccc(-c2cc(=O)oc3c(O)c(O)ccc23)cc1
-17.4	-15.2%	3.8%	18.0%	C=CCOC(=O)C1=C(C)NC(SCC)=C(C#N)C1c1ccc(Cl)cc1 (configuration not stated)
0.6	14.2%	-2.6%	20.7%	COc1ccc(/C(C)=N/NC(=S)Nc2cc(C)ccc2C)cc1
1.4	4.9%	2.9%	-22.7%	CC(Cc1cccs1)NC(=S)Nc1ccccc1 (configuration not stated)
·	-5.3%	2.7%	·	Cc1nccn1C(c1ccccc1)c1ccccc1
·	7.1%	-0.6%	-32.3%	CCCCCC(=O)Nc1ccc(C2C(=O)c3ccccc3C2=O)cc1
5.3	2.2%	-0.9%	0.0%	COCCN(CC(=O)NCc1ccc(F)cc1)C(=O)CCC(=O)Nc1ccccn1
·	-0.2%	-1.9%	·	O=C(c1ccc(CN2CCc3ccccc3C2)cc1)N1CCN(c2ccc(F)cc2)CC1
1.1&-1.9&4.5	·	·	9.0%	Nc1nc2ccc(Cl)cc2c2nc(-c3ccco3)nn12
7.7	·	·	-1.2%	O=C(NC1CC2CCCC(C1)N2Cc1cccs1)c1ccc([N+](=O)[O-])cc1 (configuration not stated)
0.4	18.5%	2.6%	-0.6%	CCCN(CCC)C(=O)C[n+]1cccc(/C=N/O)c1

(further entries)
GLA inh pH 4.5	Rango dissoc inh	Rango-impB inh	miR-21 reporter	canonical_smiles
-3.5	-8.8%	-0.2%	-0.1%	Cc1ccc(C)c(NC(=O)c2cccc(Oc3ccc([N+](=O)[O-])cc3Cl)c2)c1
·	-16.1%	1.4%	·	CSc1nnc(SCC(=O)NC(=O)c2ccccc2)s1
6.8	3.3%	2.0%	-3.0%	CCn1c(SCC(=O)OC2CCCCC2)nnc1-c1ccncc1
6.1	-0.5%	0.5%	?	Cc1c(C#N)c(NC(=O)CCl)n(Cc2ccccc2)c1C
-4.1	-13.4%	10.2%	-4.7%	O=S(=O)(c1ccccc1)c1cnc(-c2ccccc2)nc1N1CCCC1
·	-1.4%	-3.2%	·	Cc1ccc(C(=O)CCC(=O)Nc2ccc(C)cn2)cc1
6.8	32.8%	3.7%	10.2%	COc1cc(O)c(C(CC(=O)N2CCCC(C)C2)c2ccc(N(C)C)cc2)c(OC)c1 (configuration not stated)
·	-7.2%	-0.4%	-0.6%	CCc1c(C)sc(NC(=S)N2CCN(C(=O)C3CCCO3)CC2)c1C(=O)OC (configuration not stated)
-0.6[21.1 µM]	17.5%	-3.7%	0.8%	Cc1cc(C(=O)NC(C)CCC(C)C)c2ccccc2n1 (configuration not stated)
·	1.1%	3.5%	0.4%	CCC(c1nnnn1CS(=O)(=O)c1ccc(C)cc1)N1CCC(C(N)=O)CC1 (configuration not stated)
·	0.9%	-0.8%	-6.4%	COc1ccc(CNCc2cccc(C)c2)cc1
·	-1.9%	-0.4%	·	O=C1C(Cl)=C(NCCCN2CCOCC2)C(=O)c2ccccc21
·	5.4%	0.0%	-26.1%	Nc1cc(=O)[nH]c(SCCSc2ccccc2)n1
-5.6	-25.6%	-3.6%	4.1%	O=C(COC(=O)CCS(=O)(=O)c1ccc(Cl)cc1)Nc1ncc(Cl)cc1Cl
2.2	-16.1%	0.7%	-12.2%	Cn1c(=O)c2c(nc(CN3CCN(c4ccccc4F)CC3)n2CCN2CCOCC2)n(C)c1=O
13.7	-16.2%	?	-8.0%	Cc1[nH]c2ccccc2c1C(=O)CN1CCCCC1CCO (configuration not stated)
1.7	3.5%	6.4%	-9.8%	COc1c(C)cc(S(=O)(=O)N2CCCC2)c(C)c1C
-4.9	-9.2%	-4.3%	-70.0%	CC1=NN(C(=O)c2ccc(C)o2)C(O)(c2ccccc2)C1 (configuration not stated)
·	?	?	·	Cc1ccn2c(NCc3ccccc3)c(-c3cccc(SC4CCCCC4)c3)nc2c1
·	-14.6%	2.9%	-2.0%	Cn1ccnc1COc1ccc(C=O)cc1
-0.8	-5.4%	4.5%	0.7%	CCOC(=O)c1ccc(S(=O)(=O)NCCN(CC)CC)cc1
6.2	1.1%	3.7%	-2.1%	Cc1c(N=C2SCC(=O)N2c2c(C)n(C)n(-c3ccccc3)c2=O)c(=O)n(-c2ccccc2)n1C
11.9	16.3%	-0.2%	-22.3%	CCOC(=O)C1CCN(CC(=O)Nc2c(C(=O)OC)[nH]c3cccc(Cl)c23)CC1
2.8	9.6%	-2.7%	-29.0%	O=C(COC(=O)c1ccccc1Cl)NCCC1=CCCCC1
·	14.3%	-1.4%	·	NC(=O)C1CN(C(=O)c2cccc(S(=O)(=O)N3CCc4ccccc43)c2)c2ccccc2O1 (configuration not stated)
6.2	21.7%	-1.1%	0.1%	CCN(Cc1cc2ccccc2[nH]c1=O)C(=O)C(C)C
-16.2	0.0%	-0.8%	-1.0%	CCOC(=O)c1cc(C(O)(C(F)(F)F)C(F)(F)F)c(/N=C/N(C)C)o1
·	7.5%	0.4%	·	CCCSc1ccc([C@H]2N[C@@](CC(C)C)(C(=O)OC)[C@H]3C(=O)N(CC)C(=O)[C@@H]23)cc1
-5.9	22.3%	1.4%	-0.4%	Cc1cccc(C)c1NC(=O)CSc1nnc(NC(=O)c2ccccc2C(=O)O)s1
-9.9	1.2%	3.6%	-4.6%	O=C(O)C1CC(=O)N(Cc2ccc(F)cc2)C1 (configuration not stated)
0.2	0.1%	-0.4%	-1.2%	COc1ccc(CCNC(=O)COc2ccc([N+](=O)[O-])cc2)cc1
-5.9	-29.2%	?	-9.5%	CCC(C)(C)n1nnnc1CN1CCN(c2nc3ccc(C)cc3cc2C#N)CC1
-15.8	16.4%	2.0%	11.5%	CC(=O)N1C=CN(C(C)=O)C(c2cn(C)c3ccccc23)C1c1cn(C)c2ccccc12 (configuration not stated)
·	1.4%	-2.1%	-29.4%	COCC1CCCCN1C(=O)c1ccc2oc(CCc3ccccc3)nc2c1 (configuration not stated)
